HIV TAR-Tat: HIV-1 TAR-Tat binding disruption; hit rate 0.6% among 100,000; AID 1259389; HIV-1 TAR RNA, Tat peptide displacement FRET; hits give high values; z-score (concentration not given with the values);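 also: score is relative to mean and SD of negative controls; some compounds called inactive have numbers as strong as hits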
CDC25B-CDK2 inh: human CDC25B-CDK2/CyclinA binding inhibition; HTRF CDC25B-CDK2/CyclinA binding, anti-His/anti-Flag; hits give high values; hit rate 0.72% among 94,000; P30305+P24941; z-score (no concentration beside the values); AID 1259370;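 also: score is relative to mean and SD of negative controls; strong numbers were not always called active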
An asterisk follows results filed as active; nt = no result given.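 The calls were made as follows: active = z-score from 3 up in half or more of its runs; inactive = the rest.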

structure	HIV TAR-Tat	CDC25B-CDK2 inh
CC1=C(c2cccc(Cl)c2)S(=O)(=O)N=C1N1CCC(C)CC1	0.9	-2.1
Cc1nn(CC(=O)N2CCCC2)c(C)c1S(=O)(=O)N1CCC(C(=O)NC(C)C)CC1	2.09	nt
COc1ccc(-c2c(C#N)c(OC)nc3c2CCc2ccccc2-3)cc1	nt	-1.99
Cc1ccc2ncc(C(=O)Nc3ccon3)c(=O)n2c1	-0.42	-1.05
COc1cc(OC)c(NC(=O)c2cc(S(=O)(=O)N3CCCC3)cn2C)cc1Cl	1.38	nt
CCC1CCCCN1S(=O)(=O)c1ccc2oc(C(=O)O)c(C)c2c1 (stereo not drawn)	nt	-1.16
O=C(CCSc1nnc2ccccn12)Nc1ccc(F)cc1	0.8	-0.05
c1ccc(CSc2nnc(-c3cccnc3)n2Cc2ccccc2)cc1	1.12	-0.84
C=CCn1c(SCc2nc(-c3ccc(OCC)cc3)no2)nc2cc3c(cc2c1=O)OCO3	0.61	nt
CC(C)OC(=O)c1nnn(-c2nonc2N)c1CN1CCCC1	nt	-2.22
Cn1c(=O)n(C)c2cc(NS(=O)(=O)c3ccc(F)cc3)ccc21	1.13	-1.25
Cc1ccc(S(=O)(=O)NC2=NCN(Cc3ccco3)CN2)cc1	1.29	-0.55
COCCCN1C(=O)C2C(C(=O)Nc3cc(C)cc(C)c3)C3C=CC2(O3)C1C(=O)NC1CCCCC1 (stereo not drawn)	-1.18	-1.27
O=C(CSc1nc2c(c(=O)n1CCc1ccccc1)SCC2)N1CCCC1	0.42	nt
CCCCN(C)C(=O)Cn1cc2c(n1)CCC(C)C2 (stereo not drawn)	0	-0.81
N#Cc1c(C(F)(F)F)cc(-c2ccc(F)cc2)nc1SCC(=O)O	0.7	-0.11
CC(C)(C)c1ccc(C2c3c(oc4ccc(Cl)cc4c3=O)C(=O)N2CCCN2CCOCC2)cc1 (stereo not drawn)	0.43	-2.48
COC(=O)c1ccc(CS(=O)(=O)C(Cl)(Cl)Cl)o1	nt	-1.38
CCOC(=O)N1CCN(C2=NS(=O)(=O)C(c3ccc(C)cc3)=C2C)CC1	1.33	-1.48
O=C(Cn1nc(Cc2ccncc2)c2ccccc2c1=O)N1CCN(C(=O)c2ccco2)CC1	nt	-1.77
O=C(NCc1c(Cl)cccc1Oc1ccccc1)c1cccs1	nt	-1.1
O=C1Nc2cc(Cl)c(Cl)cc2C(=O)C1(F)c1ccccc1 (stereo not drawn)	nt	-0.81
Cc1cccc(C(O)(c2ccccc2)C(CN2CCOCC2)c2ccccc2)c1 (stereo not drawn)	-2.76	-0.36
O=S1(=O)C[C@H](N2CCN(c3ccccc3)CC2)[C@@H](S(=O)(=O)c2cccs2)C1	-0.91	-1.99
CCNc1nc(N2CCN(C)CC2)c2cnn(C)c2n1	1.5	nt
Cn1cncc1S(=O)(=O)/C(C#N)=N/Nc1ccc(OC(F)(F)F)cc1	nt	-0.9
Cc1cccc2c1N(Cc1ccccc1OC(C)C)C(=O)C2=O	2.35	-1.07
Cc1cc(C)n(-c2nc(-c3ccccc3)nc3c2COC(C)(C)C3)n1	-3.26	-1.55
Cn1c(SCc2nc(-c3ccccc3)no2)nnc1-c1ccc2c(c1)OCCCO2	1.48	nt
CC(C)(C)OC(=O)N1CCCN(c2ccc(C(F)(F)F)cc2[N+](=O)[O-])CC1	nt	-0.16

Reprinted from the part before: 4 entries, followed by the next part.
structure	HIV TAR-Tat	CDC25B-CDK2 inh
Cc1cccc2c1N(Cc1ccccc1OC(C)C)C(=O)C2=O	2.35	-1.07
Cc1cc(C)n(-c2nc(-c3ccccc3)nc3c2COC(C)(C)C3)n1	-3.26	-1.55
Cn1c(SCc2nc(-c3ccccc3)no2)nnc1-c1ccc2c(c1)OCCCO2	1.48	nt
CC(C)(C)OC(=O)N1CCCN(c2ccc(C(F)(F)F)cc2[N+](=O)[O-])CC1	nt	-0.16
CCOc1ccc(S(=O)(=O)NCc2c(C)nn(C)c2C)cc1	-0.57	nt
CN1CCN(c2ccccc2NC(=O)Cc2cn(C)c3ccccc23)CC1	1.08	-2.4
CN(Cc1nc2ccccc2n1CCCOc1ccccc1)C(=O)c1ccco1	1.99	-0.15
CC1=C(c2ccc(F)cc2)S(=O)(=O)N=C1N1CCN(Cc2ccc3c(c2)OCO3)CC1	-0.5	nt
Cc1ccc(-c2[nH]nc3nc(-c4ccccc4C)cc(C(=O)O)c23)cc1	1.44	nt
CCCNC(=O)CN(C)c1nnc(N2CCCCC2=O)s1	1.28	nt
COCCCN1C(=O)c2[nH]nc(-c3ccccc3O)c2C1c1cccc(Oc2ccccc2)c1 (stereo not drawn)	0.07	0.82
CCn1c(=O)c(-c2noc(CCC(=O)O)n2)nn(-c2ccccc2)c1=O	2.15	-0.72
Cc1cc2nc(CN3CCCCC3)cc(=O)n2o1	0.72	nt
Cc1nn2c(=O)cc(CN(C)c3ccccc3)nc2s1	0.36	nt
COc1ccc2cc(S(=O)(=O)N3CCN(C(c4ccccc4)c4ccccc4)CC3)ccc2c1	0.24	-1.79
O=S(=O)(c1cccc2nsnc12)N1CCCC1c1ccc(Cl)cc1 (stereo not drawn)	1.12	-2.59
CCOC(=O)N1CCC(Nc2c(N3CC(C)CC(C)C3)c(=O)c2=O)CC1 (stereo not drawn)	-0.14	-1.03
CCOc1ccc(-n2ccn3c(CC(C)CC(=O)O)nnc3c2=O)cc1 (stereo not drawn)	-7.06	-2.18
CC(O)CNC(=O)C(=O)NCc1n[nH]c(=O)c2ccccc12 (stereo not drawn)	1.2	nt
COc1ccccc1NC1=C(Cl)C(=O)OC1OC(=O)c1ccco1 (stereo not drawn)	nt	0.37
CCCCCCCNC1=CC(=O)CC(c2ccco2)C1 (stereo not drawn)	1.46	-0.43
CC(Oc1ccc(F)cc1)C(=O)Nc1sc2c(c1C(N)=O)CCC2 (stereo not drawn)	nt	-0.35
C=CCOc1ccc(C2c3c(oc4ccc(C)cc4c3=O)C(=O)N2CCCN2CCOCC2)cc1 (stereo not drawn)	0.15	-1.06
COc1ccc(CCNC(=O)c2ccc(CSc3ccc(Cl)cc3)o2)cc1OC	nt	-1.49
O=C(O)C1=CC(c2ccccc2Cl)n2nnnc2N1 (stereo not drawn)	1.83	nt
O=S(=O)(Cc1noc(CSc2ccc(Cl)cc2)n1)c1ccccn1	nt	-1.86
COc1ccc2[nH]c3c(=O)n(CCCCCC(=O)N4CCC(C(N)=O)CC4)c(=S)[nH]c3c2c1	nt	-1.45
O=C(Nc1sc2c(c1C(=O)NCc1ccco1)CCC2)c1csnn1	9.26*	-0.63
O=C1CC(c2n[nH]c(=S)o2)CN1c1ccc(F)c(Cl)c1 (stereo not drawn)	1.72	-1.16
Nc1c(-c2nc(-c3ccccc3Cl)no2)nnn1-c1ccccc1	-1.21	nt
CSc1nc(-c2cccnc2)nc(-c2ccccc2)c1C#N	nt	0.46
Cc1ccc(/C=C/c2nc(C#N)c(N3CCN(C(=O)c4ccc(C)cc4)CC3)o2)cc1	-0.05	-0.97
COc1ccc(Br)cc1C1Nc2ccccc2-c2nnc(SC)nc2O1 (stereo not drawn)	0.22	0.64
CCN(CC)c1c(S(=O)(=O)c2ccc(Cl)cc2)cnc2cc(OC)c(OC)cc12	-0.25	-1.35

Reprinted at random: 2 entries already listed.
structure	HIV TAR-Tat	CDC25B-CDK2 inh
Cc1ccc(-c2[nH]nc3nc(-c4ccccc4C)cc(C(=O)O)c23)cc1	1.44	nt
CCOC(=O)N1CCC(Nc2c(N3CC(C)CC(C)C3)c(=O)c2=O)CC1 (stereo not drawn)	-0.14	-1.03

Continued.
structure	HIV TAR-Tat	CDC25B-CDK2 inh
Nc1ccccc1SCc1cn2cccnc2n1	-1.26	-1.22
CN(C)/C=C/c1ccc([N+](=O)[O-])cc1[N+](=O)[O-]	nt	-0.16
CC(=O)Nc1c2n(c3ccccc13)CC(C)(C(=O)NCCC(C)C)N(CCC(C)C)C2=O (stereo not drawn)	1.93	nt
CCn1cc(CCC(=O)O)c2ccccc21	0.08	nt
O=C(Nc1ccc2oc(-c3ccccc3)nc2c1)c1ccc2ccccc2c1	nt	-3.57
CCn1nccc1C1CCCN1S(=O)(=O)c1cc(F)ccc1F (stereo not drawn)	0.81	-0.06
O=C(Nc1ccccc1)c1noc2c1CCc1sccc1-2	1.06	nt
O=C(CSCc1cnn(-c2ccccc2)c1-n1cccc1)N1CCc2ccccc21	-0.73	-1.45
CCOc1ccc2c(=O)c(-c3ccc(F)cc3)c(C)oc2c1	nt	-0.75
CCOC(=O)C1CCC(C(=O)OCC)N1C(=O)Nc1ccc(Cl)cc1 (stereo not drawn)	nt	-1.87
Cc1cn2c(=O)cc(CSc3ccccc3C)nc2s1	0.73	nt
CN1C(=O)C(C)(C)c2cc(S(=O)(=O)N3CCCC(C(=O)NCCC4=CCCCC4)C3)ccc21 (stereo not drawn)	1.67	nt
COC(=O)c1c(SCC(=O)Nc2ccc(Br)cc2)[nH]c2ccccc2c1=O	-0.01	nt
CC(=O)N1c2ccc(S(=O)(=O)N3CCCC3)cc2CC1C(=O)Nc1c(C)cc(C)cc1C (stereo not drawn)	1.44	nt
COCCCNC(=O)C1=C(C)C(=O)OC12CCN(S(=O)(=O)c1cccs1)CC2	0.49	nt
CC(=O)N1c2nc(C(C)C)nn2C2(CCCCC2)[C@@H]2CCCC[C@@H]21	1.8	0.11
Cc1cc(OCC(=O)N2N=C3CCC(C)CC3C2(O)C(F)(F)F)ccc1Cl (stereo not drawn)	nt	-0.31
Cc1cc(C)n(S(=O)(=O)c2ccccc2)n1	-1.32	0.24
Cc1cccc(C2CC(=O)Nc3c2c(C)nn3-c2nc3ccccc3s2)c1 (stereo not drawn)	2.24	-1.6
Cc1ccc(NC(=O)Nc2cc3sccc3n2C)c(C)c1	-7.56	2.68
Cc1cccc(N(C)S(=O)(=O)c2cc(Br)cnc2N)c1	0.2	-1.53
O=C(Nc1c(C(=O)N2CCN(c3ccccc3)CC2)oc2ccccc12)C1CCCC1	1.46	nt
COc1ccc(CCN2C(=O)CCC(C(=O)O)C2c2cc(OC)c(OC)c(OC)c2)cc1OC (stereo not drawn)	nt	0.24
CSc1cccc(NC(=O)c2cnccn2)c1	nt	-0.56
COCCNC(=O)c1cc2c(s1)CSC2	nt	-0.21
CCOc1ccc(/C(O)=C2/C(=O)C(=O)N(CCOC)C23C(=O)N(C)c2ccccc23)cc1 (stereo not drawn)	0.17	0.04
Cc1noc(/C=C/N(C)C)c1S(=O)(=O)NCCN1CCC(Cc2ccccc2)CC1	1	nt
N#CCC(=O)NCc1ccccn1	nt	-2.14
Cc1cc2[nH]c(=O)c(=O)[nH]c2cc1S(=O)(=O)NCc1ccco1	0.99	nt
CC(C(=O)O)n1cnc2ccccc21 (stereo not drawn)	2.35	-0.19
CCN(CC)CCn1c(=O)c2[nH]cnc2n(C)c1=O	-0.85	-0.87
COc1ccc(CN2CCN(Cc3cc(Br)ccc3OC)CC2)cc1	0.11	-1.12
Cc1ccccc1-c1nc(CSc2nc3c(c(=O)[nH]2)CCC3)c(C)o1	0.82	0.6
Clc1ccc2nc(N3CCN(C4CCCCC4)CC3)c3nncn3c2c1	-0.22	-1.06
CCC(C)NC(=O)CN(C)c1nn2c(=O)cc(C)nc2s1 (stereo not drawn)	2.35	-0.7
CCOc1ccccc1CN(CCc1ccc2c(c1)OCO2)Cc1cccnc1	nt	-0.39
Cc1ccc(/C(C#N)=C2C=C(Br)/C(=N/O)C=C\2Cl)cc1	nt	-0.27
O=C(c1cc(-c2ccc3c(c2)OCCO3)on1)N(Cc1ccccc1Cl)C1CCS(=O)(=O)C1 (stereo not drawn)	0.51	-3.54
CSc1nsc(SC)c1C(=O)N1CCSCC1	nt	0.56
CC(=O)/C(=C\N(C)C)SCc1ccccc1C	nt	-0.66
O=C1N(Cc2ccc3c(c2)OCO3)c2ccccc2C1(O)c1c[nH]c2ccccc12 (stereo not drawn)	-0.39	0.15
CCOC(=O)CN1C(=O)c2ccc3c4c(ccc(c24)C1=O)C(=O)N(CC(=O)OCC)C3=O	nt	-1.73
Cc1ccc2c(c1)Cc1c(nc(-c3ccccc3O)[nH]c1=O)O2	1.93	-1.78
CCNc1cc(N(CC)CCO)c2noc3c2c1C(=O)c1ccccc1-3	4.48	-3.75
CC(C)(C)c1ccc(OCc2nn3c(Cn4cnc5ccccc54)nnc3s2)cc1	1.99	0.3
Cc1ccccc1-c1nc(SCC(=O)Nc2cc(F)ccc2F)n2[nH]c(=O)cc2n1	-0.09	nt
O=C(c1ccc(Cl)cc1)N1N=C2CCCCC2C1(O)C(F)(F)F (stereo not drawn)	nt	-0.98
O=C(C1CC(c2ccc(F)cc2)=NO1)N1CCCC1 (stereo not drawn)	0.06	-0.93
COc1cc(C(Nc2cccc(C)n2)c2ccc3ccc(C)nc3c2O)cc(OC)c1OC (stereo not drawn)	nt	-1.06
CC1C(=O)N2CCCc3cc(S(=O)(=O)N4CCN(c5ccc(F)cc5)CC4)cc1c32 (stereo not drawn)	0.9	nt

Screens (PubChem)
